Ecoli rRNA inh: inhibitors of bacterial rRNA selective over humanized ribosomes; 1.6% of 350,000 active; GFP signal change (wild-type ribosome), % (concentration not given with the values); E. coli WT GFP vs humanized-ribosome RFP mutants, fluorescence, 24 h; hits give low values; DMSO median 0, no signal -100; AID 720706;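 active means significant combined selectivity score with lowered wild-type GFP, culture density cut under 30%, mutant RFP and density less affected; inactive means any of these conditions unmet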; further: one replicate is shown; some compounds called inactive have numbers as strong as hits
FGF22 binding: FGF22 (human) thermal shift binding; Q9HCT0; recombinant FGF22 thermal shift, SYPRO orange fluorescence; percent of sucrose octasulfate shift, DMSO zero; calls only at 9.99 µM; AID 651658; 1.5% of 340,000 active;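 active means melting point raised past a set limit in the mean and every replicate; three in four hits are not shown here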
Target sequence (Q9HCT0 whole entry, looked up): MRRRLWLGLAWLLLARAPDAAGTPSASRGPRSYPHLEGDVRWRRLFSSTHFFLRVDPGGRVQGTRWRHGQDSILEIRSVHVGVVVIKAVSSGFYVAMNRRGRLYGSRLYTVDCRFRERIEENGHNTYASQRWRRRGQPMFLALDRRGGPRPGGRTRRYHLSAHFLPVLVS
MLL AF4-AF9 inh: blocks AF4 peptide binding to human AF9. AID 651704. inhibition, % at 10 µM. 0.47% of 350,000 active. AlphaScreen, biotin-AF4 peptide binding to FLAG-AF9;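 active means every replicate reaching a set inhibition limit, whatever the replicate mean, cut at about 25% in these data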;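 further: 0% = plate neutral control median and 100% = total signal loss; the record names both 10 and 1 µM as test concentration; the first replicate is given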
Target sequence (P42568 whole entry, looked up): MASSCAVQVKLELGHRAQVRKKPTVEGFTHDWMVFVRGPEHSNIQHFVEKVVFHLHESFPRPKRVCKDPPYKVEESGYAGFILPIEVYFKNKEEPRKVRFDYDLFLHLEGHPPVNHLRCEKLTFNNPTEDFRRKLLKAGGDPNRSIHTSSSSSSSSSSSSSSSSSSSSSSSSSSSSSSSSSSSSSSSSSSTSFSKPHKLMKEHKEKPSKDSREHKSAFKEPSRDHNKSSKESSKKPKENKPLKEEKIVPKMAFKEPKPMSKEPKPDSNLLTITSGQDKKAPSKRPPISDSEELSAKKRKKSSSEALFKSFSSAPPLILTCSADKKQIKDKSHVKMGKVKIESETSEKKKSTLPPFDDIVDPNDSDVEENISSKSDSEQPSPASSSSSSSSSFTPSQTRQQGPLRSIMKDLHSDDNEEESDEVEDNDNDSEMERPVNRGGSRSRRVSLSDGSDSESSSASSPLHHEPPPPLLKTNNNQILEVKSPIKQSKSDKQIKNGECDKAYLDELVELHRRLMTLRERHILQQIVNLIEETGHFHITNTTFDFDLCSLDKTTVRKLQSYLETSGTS
Ecoli rRNA inh OD600: recorded beside Ecoli rRNA inh, whose call it bears; OD600 change, %; measured here: OD600 growth;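 optical density of the mix in the first replicate; 0 = DMSO median and -100 = no signal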
Ecoli rRNA inh RFP: second read-out of Ecoli rRNA inh, no call of its own (marks repeat the call); RFP signal change, %; measured here: RFP humanized mutant strains;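 first replicate; 0 = DMSO median and -100 = no signal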
* hit, by the source's call; i = inactive; / = no result given; & = joins results of further samples. A portion of the library; rates above refer to the full screens.

1	O=C(NC1CCCCC1)[C@@H]1[C@@H](CO)[C@@H]2Cn3c(cccc3=O)[C@H]1N2Cc1cccnc1
2	O=C(OCC(=O)N1CCCCCC1)c1ccc(F)cc1F
3	CN(C)CC(=O)Nc1ccc2c(c1)[C@@H]1C[C@@H](CC(=O)NCc3ccc(Cl)cc3)O[C@@H](CO)[C@@H]1O2
4	COc1ccc(S(=O)(=O)Nc2ccc3c(c2)CC(=O)N([C@H](C)CO)C[C@H](C)[C@@H](CN(C)CC2CC2)O3)cc1
5	COc1ccc(NC(=O)Nc2ccc3c(c2)C(=O)N([C@H](C)CO)C[C@H](C)[C@H](CN(C)Cc2ccc(Oc4ccccc4)cc2)O3)cc1
6	CC1=C(C(=O)N2CCOCC2)CC(CC(=O)NCc2cccs2)C(=O)N1CCCN1CCCC1=O (stereo not given)
7	CC(=O)N(C)C[C@H]1Oc2ncc(C#Cc3ccc(F)cc3)cc2C(=O)N([C@H](C)CO)C[C@H]1C
8	CC(C)CSc1nc(N)nc2c1ncn2C1OC(CO)C(O)C1O (stereo not given)
Compound,1,2,3,4,5,6,7,8
Ecoli rRNA inh,2,3,-1,0,4,8,-1,14
Ecoli rRNA inh OD600,12,1,4,1,1,20,2,11
Ecoli rRNA inh RFP,-0.6,-1.4,-2.5,-0.7,4.3,-2.2,-0.8,-1.4
FGF22 binding,i,/,i,i,i,i,i,i
MLL AF4-AF9 inh,1.5,-4.7,-0.7,3.0,-4.9,-0.7,-1.4,7.0

9	COCC(=O)N(C)C[C@@H]1Oc2cc(Br)ccc2S(=O)(=O)N([C@H](C)CO)C[C@H]1C
10	C[C@H](CO)N1C[C@H](C)[C@@H](CN(C)C)Oc2cc(C3=CCCC3)ccc2S1(=O)=O
11	O=S(=O)(Cc1ccccc1)N1CCCCN2[C@H](C1)[C@@H](c1ccc(-c3ccccc3)cc1)[C@@H]2CO
12	CCCC#Cc1cnc2c(c1)C(=O)N([C@@H](C)CO)C[C@H](C)[C@@H](CN(C)C(=O)c1cccc(F)c1)O2
13	C[C@@H]1CCCCO[C@@H](CN(C)S(=O)(=O)c2cn(C)cn2)[C@H](C)CN([C@@H](C)CO)C(=O)c2cc(N(C)C)ccc2O1
14	COC(=O)C[C@@H]1C[C@@H]2c3cc(NC(=O)Nc4ccc(C(F)(F)F)cc4)ccc3O[C@@H]2[C@H](CO)O1
15	COc1ccccc1NC(=O)N(C)C[C@H]1Oc2ncc(Br)cc2C(=O)N([C@H](C)CO)C[C@@H]1C
16	CC1(C)C2CCC1(C)C(SC(=N)N)C2 (stereo not given)
Compound,9,10,11,12,13,14,15,16
Ecoli rRNA inh,3&4,11,2,1,4,-13,-1,-4
Ecoli rRNA inh OD600,9&3,9,-16,-1,8,-14,7,-9
Ecoli rRNA inh RFP,2.6&-3.8,4.1,9.4,3.8,-1.0,9.5,-1.4,-3.0
FGF22 binding,i,i,i,i,i,i,i,i
MLL AF4-AF9 inh,-1.9&-3.4,-1.0,-8.6,2.7,-0.2,1.1,-0.9,0.9

Full records, looked up by structure. Order of screens: Ecoli rRNA inh	Ecoli rRNA inh OD600	Ecoli rRNA inh RFP	FGF22 binding	MLL AF4-AF9 inh
CC1(C)C2CCC1(C)C(SC(=N)N)C2 (stereo not given) is listed with -4	-9	-3.0	i	0.9
C[C@H](CO)N1C[C@H](C)[C@@H](CN(C)C)Oc2cc(C3=CCCC3)ccc2S1(=O)=O is listed with 11	9	4.1	i	-1.0

The list goes on.
17	C[C@@H]1CN([C@H](C)CO)C(=O)c2cccc(NS(=O)(=O)c3cn(C)cn3)c2O[C@H]1CN(C)Cc1ccc(Oc2ccccc2)cc1
18	Cc1ccc(S(=O)(=O)N(C)C[C@H]2Oc3ccc(NC(=O)Nc4cccc5ccccc45)cc3CC(=O)N([C@@H](C)CO)C[C@@H]2C)cc1
19	COCC(=O)N(C)C[C@@H]1Oc2cc(C3=CCCC3)ccc2S(=O)(=O)N([C@H](C)CO)C[C@@H]1C
20	COc1ccc(C(=O)Nc2ccc3c(c2)C(=O)N(C)C[C@H](OC)[C@@H](C)CN[C@@H](C)CO3)cc1
21	C[C@@H]1CN([C@H](C)CO)C(=O)Cc2cc(NC(=O)Cn3cnnn3)ccc2O[C@H]1CN(C)Cc1ccc2c(c1)OCO2
22	C[C@@H]1CCCCO[C@H](CN(C)CC2CCCCC2)[C@@H](C)CN([C@H](C)CO)C(=O)c2cc(NS(=O)(=O)c3cn(C)cn3)ccc2O1
23	O=C(NC(c1ccc2c(c1)OCO2)c1ccccn1)C1CCN(CCOc2ccc(Cl)cc2Cl)CC1 (stereo not given)
24	COCC(=O)N1[C@@H](C#N)[C@@H](c2ccccc2-c2cccc(F)c2)[C@@H]1CO
Compound,17,18,19,20,21,22,23,24
Ecoli rRNA inh,2,-2,0,0,2,2,-57,-1
Ecoli rRNA inh OD600,3,-1,1,2,6,9,-73,-2
Ecoli rRNA inh RFP,1.9,3.8,-0.3,-1.3,-0.5,-1.9,-17,-0.9
FGF22 binding,i,i,i,i,i,i,i,i
MLL AF4-AF9 inh,3.5,0.8,-1.4,-2.4,-2.2,-6.0,-1.6,-3.7

25	COCC#Cc1cnc2c(c1)C(=O)N([C@@H](C)CO)C[C@@H](C)[C@H](CN(C)S(=O)(=O)c1cccc(OC)c1)O2
26	CCC(=O)Nc1ccc2c(c1)OC[C@@H](C)N(Cc1cccc(F)c1)C[C@@H](C)[C@@H](OC)CN(C)C2=O
27	CC(C)c1cn(CC[C@H]2CC[C@H](NC(=O)C3CC3)[C@@H](CO)O2)nn1
28	CCCN1[C@H](C(=O)NC2CCC2)[C@@H](CO)[C@@H]2Cn3c(ccc(-c4cccnc4)c3=O)[C@@H]21
29	COc1ccc(NC(C)=O)cc1NC(=O)C1CCCN1C(=O)c1cccs1 (stereo not given)
30	COc1ccc(S(=O)(=O)N[C@@H]2CC[C@H](CC(=O)NCCc3ccccc3)O[C@@H]2CO)cc1
31	C[C@H](CO)N1C[C@H](C)[C@H](CN(C)C(=O)c2ccc(F)cc2)Oc2ncc(C#CCN(C)C)cc2C1=O
32	Cc1noc(C)c1S(=O)(=O)Nc1ccc2c(c1)C(=O)N([C@H](C)CO)C[C@H](C)[C@@H](CN(C)Cc1ccc(C(F)(F)F)cc1)OCCCC[C@H](C)O2
Compound,25,26,27,28,29,30,31,32
Ecoli rRNA inh,-2,1&-2&10,2,4,3,0,4,-2
Ecoli rRNA inh OD600,4,0&-3&-2,-2,12,13,0,6,-29
Ecoli rRNA inh RFP,-2.7,-2.7&0.9&3.5,-1.8,-1.4,0.9,0.7,0.4,7.7
FGF22 binding,i,i,i,i,i,i,i,i
MLL AF4-AF9 inh,-0.7,1.3&5.3,5.1,-1.8,-0.6,-1.0,-4.5,1.6

33	CO[C@H]1CN(C)C(=O)c2cc(NC(=O)Nc3ccccc3)ccc2OC[C@H](C)N(C(C)=O)C[C@@H]1C
34	CO[C@@H](CN(C)S(=O)(=O)c1ccc(Cl)cc1)[C@@H](C)CN(C(=O)Nc1ccccc1F)[C@@H](C)CO
35	O=C(OCC(=O)N1CCCC1)c1ccc(Cl)nc1
36	COc1c2c(cc(O)c1C(C)=O)OC(C)(C)C=C2
37	COCC(=O)N(C)C[C@@H]1Oc2ncc(C3=CCCCC3)cc2C(=O)N([C@H](C)CO)C[C@H]1C
38	Cc1noc(C)c1NC(=O)Nc1ccc2c(c1)C(=O)N([C@@H](C)CO)C[C@@H](C)[C@H](CN(C)C(=O)Nc1ccc(C(F)(F)F)cc1)OCCCC[C@@H](C)O2
39	C[C@H](CO)N1C[C@H](C)[C@H](CN(C)C(=O)Nc2ccc3c(c2)OCO3)Oc2c(NC(=O)c3nc4ccccc4s3)cccc2C1=O
40	COc1ccc(NC(=O)c2cc(C3CCCCN3C(=O)C3CCCCC3)on2)c(C)c1 (stereo not given)
Compound,33,34,35,36,37,38,39,40
Ecoli rRNA inh,-1,-4,3,13,4,3,-4,-17
Ecoli rRNA inh OD600,-3,-5,8,16,5,5,-10,-51
Ecoli rRNA inh RFP,3.1,3.4,-1.8,0.5,-3.2,-2.0,1.7,-4.8
FGF22 binding,i,i,i,i,i,i,i,i
MLL AF4-AF9 inh,3.5,0.1,1.3,1.4,-1.7,-0.9,8.7,-5.1

41	C[C@H](CO)N1C[C@H](C)[C@H](CN(C)CC2CC2)Oc2c(NC(=O)Nc3ccc(C(F)(F)F)cc3)cccc2C1=O
42	COc1cccc(S(=O)(=O)Nc2ccc3c(c2)C(=O)N(C)C[C@@H](OC)[C@H](C)CN(Cc2ccccc2F)[C@@H](C)CO3)c1
43	CC(C)CNC(=O)C1(C)CCCN1C(=O)Cc1cccc2ccccc12 (stereo not given)
44	O=C(CCN1CCCCC1)NCC[C@@H]1CC[C@H](NC(=O)c2ccc(F)cc2)[C@@H](CO)O1
45	C[C@@H]1CN([C@@H](C)CO)C(=O)c2cc(NC(=O)C3CCCCC3)ccc2O[C@@H](C)CCCCO[C@@H]1CN(C)C(=O)Nc1ccc(F)cc1
46	C[C@@H]1CN([C@@H](C)CO)C(=O)c2cc(NS(=O)(=O)c3ccccc3)ccc2O[C@@H]1CN(C)Cc1ccc2c(c1)OCO2
47	CCCN(C)C[C@H]1Oc2cc(C#Cc3cccc(OC)c3)ccc2S(=O)(=O)N([C@@H](C)CO)C[C@H]1C
48	O=C(C[C@H]1CC[C@@H]2[C@H](COC[C@@H](O)CN2C(=O)Nc2ccccc2)O1)NCCc1ccncc1
Compound,41,42,43,44,45,46,47,48
Ecoli rRNA inh,5,-3,1,2,-2,6,-1,-1
Ecoli rRNA inh OD600,-18,6,0,7,-10,4,6,-2
Ecoli rRNA inh RFP,31,1.4,-0.7,-2.3,1.5,-3.6,1.6,-3.7
FGF22 binding,i,i,i,i,i,i,i,i
MLL AF4-AF9 inh,5.1,0.1,1.9,3.8,0.9,-0.5,6.9,-2.1

49	COC(=O)C1=C(C)N(C)C(=NCc2cc(OC)c(OC)c(OC)c2)NC1c1cccc(F)c1 (stereo not given)
50	C[C@H]1CN([C@@H](C)CO)C(=O)Cc2cc(NC(=O)Nc3ccccc3)ccc2O[C@@H]1CN(C)CC1CC1
51	CCCC#Cc1cnc2c(c1)C(=O)N([C@@H](C)CO)C[C@H](C)[C@@H](CN(C)Cc1cccnc1)O2
52	O=C(C[C@@H]1C[C@@H]2c3cc(NS(=O)(=O)c4ccccc4)ccc3O[C@@H]2[C@@H](CO)O1)N1CCCCC1
53	Cc1noc(C)c1NC(=O)Nc1ccc2c(c1)C(=O)N([C@H](C)CO)C[C@H](C)[C@H](CN(C)C(=O)NC(C)C)OCCCC[C@H](C)O2
54	C[C@H]1CN([C@@H](C)CO)C(=O)c2cccc(NC(=O)c3ccc(-c4nccs4)cc3)c2O[C@H]1CN(C)S(C)(=O)=O
55	COc1ccccc1S(=O)(=O)N(C)C[C@@H]1OCc2cn(nn2)CCCC(=O)N([C@@H](C)CO)C[C@@H]1C
56	C[C@@H]1CCCCO[C@H](CN(C)C(=O)c2ccncc2)[C@H](C)CN([C@H](C)CO)C(=O)c2cc(NS(C)(=O)=O)ccc2O1
Compound,49,50,51,52,53,54,55,56
Ecoli rRNA inh,6,4,-2,5,4,1,2,3
Ecoli rRNA inh OD600,10,-11,5,5,-2,6,-2,0
Ecoli rRNA inh RFP,-2.9,0.3,-0.4,-0.5,-2.8,0.2,2.2,-3.1
FGF22 binding,i,i,i,i,i,i,i,i
MLL AF4-AF9 inh,-11,1.1,0.8,-1.8,-2.2,-1.2,0.5,1.2

57	O=C(OCC(O)C1OC(c2ccccc2)OC(COC(=O)c2ccccc2)C1O)c1ccccc1 (stereo not given)
58	C[C@H](CO)N1C[C@H](C)[C@@H](CN(C)C(=O)Nc2ccc(F)cc2)Oc2ncc(-c3cccnc3)cc2C1=O
59	CC(=O)Nc1ccc(S(=O)(=O)NN=CCCc2ccccc2)cc1
60	CC(=O)NC[C@@H]1[C@H](c2ccc(-c3ccccc3)cc2)[C@@H](CO)N1C(=O)C1CC1
61	Cc1ccc(S(=O)(=O)N(C)c2ccc(C(=O)NCC(c3ccccc3)N3CCCC3)cc2)cc1 (stereo not given)
62	CCCN(C)C[C@H]1Oc2cc(C#Cc3cccc(F)c3)ccc2S(=O)(=O)N([C@H](C)CO)C[C@H]1C
63	CO[C@H]1CN(C)C(=O)c2cc(NC(=O)c3cc(C)on3)ccc2OC[C@H](C)N(C(C)=O)C[C@H]1C
64	CO[C@@H]1CN(C)C(=O)c2cc(NC(=O)c3ccccc3F)ccc2OC[C@H](C)N(C)C[C@@H]1C
Compound,57,58,59,60,61,62,63,64
Ecoli rRNA inh,-1,-3,4,0,3,-2,2,-1
Ecoli rRNA inh OD600,0,6,-4,0,4,-9,1,0
Ecoli rRNA inh RFP,3.7,0.6,5.5,-0.5,9.2,13,-1.3,0.4
FGF22 binding,i,i,i,i,i,i,i,i
MLL AF4-AF9 inh,-7.6,-1.5,-2.0,-8.0,6.1,6.9,-1.5,-0.9
